Beta apoptosis – blocks beta cell apoptosis; protection from apoptosis, % (no concentration beside the values); INS-1E cytokine-induced death, ATP luminescence, 48 h; percent of positive-control rescue, neutral wells zero; 300,000 tested, 0.8% active; AID 435005;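 active = all replicates at 75% or more, or half of them and the mean; inconclusive = half reach 75% but not the mean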;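 note: 0% = cytokine-treated negative control wells and 100% = positive control rescue; higher means more ATP so stronger rescue from cytokine killing; wells of about 40 µL received 100 nL stock; the first replicate is given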
LANA-H2B inh – blocks KSHV LANA binding to histone H2A/H2B; Q9QR71; cell-free LANA-H2A/H2B peptide, fluorescence polarization; inhibition, % (no concentration beside the values); 320,000 tested, 0.6% active; AID 2629; in the data active = inhibition mostly above about 10%, no sharp cut-off; inactive = mostly below about 6.7%;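 note: stock transfer was 7.5 nL into about 10 µL; 0% = median of vehicle wells and 100% = median of positive control wells; one replicate is shown; the record names a cut of 25% in any replicate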
Target sequence (Q9QR71 whole entry, looked up): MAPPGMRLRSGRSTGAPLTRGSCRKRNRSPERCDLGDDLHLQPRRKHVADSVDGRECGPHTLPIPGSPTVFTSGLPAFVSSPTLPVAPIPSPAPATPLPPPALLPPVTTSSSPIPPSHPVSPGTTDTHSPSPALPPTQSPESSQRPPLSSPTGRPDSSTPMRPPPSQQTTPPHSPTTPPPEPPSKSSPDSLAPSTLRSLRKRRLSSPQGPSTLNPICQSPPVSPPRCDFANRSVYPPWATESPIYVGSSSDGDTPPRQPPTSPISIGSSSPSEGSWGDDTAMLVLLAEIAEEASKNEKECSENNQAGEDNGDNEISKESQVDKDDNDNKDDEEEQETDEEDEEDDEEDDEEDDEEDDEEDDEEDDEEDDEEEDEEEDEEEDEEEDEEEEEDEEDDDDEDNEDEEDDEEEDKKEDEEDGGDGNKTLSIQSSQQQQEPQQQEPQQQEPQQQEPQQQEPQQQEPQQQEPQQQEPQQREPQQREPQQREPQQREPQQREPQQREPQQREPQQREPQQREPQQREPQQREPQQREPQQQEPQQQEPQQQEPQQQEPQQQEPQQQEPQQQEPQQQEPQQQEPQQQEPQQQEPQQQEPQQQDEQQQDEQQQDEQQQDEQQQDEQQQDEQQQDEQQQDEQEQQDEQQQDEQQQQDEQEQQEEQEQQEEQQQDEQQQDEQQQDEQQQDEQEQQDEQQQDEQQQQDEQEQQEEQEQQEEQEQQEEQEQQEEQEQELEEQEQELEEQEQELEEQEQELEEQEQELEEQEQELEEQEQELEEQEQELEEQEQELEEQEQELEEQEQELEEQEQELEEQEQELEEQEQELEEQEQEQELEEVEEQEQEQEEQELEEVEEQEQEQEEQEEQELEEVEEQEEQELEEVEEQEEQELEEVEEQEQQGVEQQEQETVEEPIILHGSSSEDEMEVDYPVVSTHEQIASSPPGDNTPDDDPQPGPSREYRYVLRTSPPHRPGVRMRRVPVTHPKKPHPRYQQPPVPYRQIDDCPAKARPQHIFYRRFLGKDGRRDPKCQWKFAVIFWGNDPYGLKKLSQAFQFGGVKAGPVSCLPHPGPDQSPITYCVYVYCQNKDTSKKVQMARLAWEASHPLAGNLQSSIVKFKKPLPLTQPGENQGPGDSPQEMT
T cruzi inh – blocks replication of Trypanosoma cruzi; T. cruzi beta-gal in NIH3T3, luminescence, 90 h; inhibition, % (no concentration beside the values); 300,000 tested, 1.4% active; AID 1885;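 active = mean inhibition across valid replicates above about 55%, limit read from the data; inconclusive = mean below that limit but half or more replicates reach it; inactive = mean below it, under half of replicates reach it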;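 note: signal also drops with host cell toxicity which is not excluded here; 0% = plate median of DMSO wells and 100% = zero luminescence signal; higher percent means less beta-gal luminescence so fewer parasites; stock transfer was 50 nL into about 50 µL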
UCH37 inh – blocks the human deubiquitinase UCH37. inhibition, % (no concentration beside the values). 330,000 tested, 0.33% active. Q9Y5K5. AID 588478. purified proteasome/UCH37, Ub-AMC cleavage fluorescence;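 active = mean of two replicates above 20%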;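 note: 0% = compound-free wells with enzyme and 100% = wells lacking proteasome; stock transfer was 100 nL into about 20 µL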
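Schedule: 30 min plus 25 min, room temperature / Material: human UCH37 within purified proteasomes / Technique: AMC fluorescence intensity at 355/460 nm / Buffer or medium: pH 7.4 Tris-HCl (50 mM) with ovalbumin, ATP-MgCl2, DTT / Controls: wells without proteasome as full block, compound-free enzyme plus substrate as uninhibited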
Bfl-1 A1 inh – inhibitors of the anti-apoptotic protein A1, read as caspase activation; MEF A1-2A-BIM cells, Caspase-Glo 3/7 luminescence, 3 h; percent of clofoctol response, vehicle zero; caspase activation, % (test concentration not listed); 330,000 tested, 0.066% active;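 active = over half of replicate activation scores above 10%, or exactly half above 10 with the replicate mean above 10; inconclusive = replicate mean below 10 yet half the replicates above 10; inactive = over half of replicates below 10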;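 note: wells of about 30 µL received 50 nL stock; many hits fall short of the cut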
B2AR ag – human beta-2 adrenergic receptor agonism by FAP. P07550. Am2.2-beta2AR cells, FAP receptor internalization, flow cytometry; reference of the scale not given here. response, % (no concentration beside the values). 340,000 tested, 0.43% active;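 active = response above a set limit, near 3 SD of response in nonfluorescent compounds, cut at about 42% in these data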;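 note: stock transfer was 100 nL into about 11 µL; a reference agonist was the positive control; negative values mostly stem from fluorescent compounds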
RanGTP-Imp inh – disruptors of Ran-importin-beta complex formation – biochemical, FRET, CFP-Ran, YFP-importin-beta, homogeneous, primary screen | inhibition, % (concentration not given with the values) | cell-free CFP-Ran/YFP-importin-beta FRET ratio | 300,000 tested, 1.1% active;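 active = most replicates above 15%; inconclusive = exactly half above 15%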;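 note: 0% = DMSO wells and 100% = Ran loaded with GDP instead of GTP; wells of about 40 µL received 100 nL stock; the first replicate is given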
Calb FLC – C. albicans growth modulation with fluconazole | C. albicans CaCi-2 (fluconazole-resistant clinical isolate) + fluconazole, Alamar Blue growth, 48 h | growth inhibition, % (concentration not given with the values) | 300,000 tested, 0.57% active | AID 1979;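 active = most replicates above 75%; inconclusive = exactly half above 75%; inactive = most below 75%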;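 note: all wells also contain fluconazole at 8 µg/ml as a sub-toxic cotreatment; 0% = median of DMSO wells and 100% = median of geldanamycin control wells; wells of about 8 µL received 7.5 nL stock; the first replicate is given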
* hit, by the source's call; ? = inconclusive; / = not tested or not shown. Rows were taken by chance; about 4.3% have a hit in one of these screens.

SMILES | Beta apoptosis | LANA-H2B inh | T cruzi inh | UCH37 inh | Bfl-1 A1 inh | B2AR ag | RanGTP-Imp inh | Calb FLC
COc1ccc(C(=O)NNC(=O)C(=O)/C=C(\O)c2ccc(C)cc2)cc1 | / | 2.1 | -13.4 | 15.6 | 0.9 | 7.7 | 1.3 | -4.4
O=C(Nc1ccccc1C(=O)N1CCCCC1)c1ccc(Cl)cc1Cl | -1.3 | -4.3 | -6.0 | 1.8 | 0.3 | -11.0 | 1.6 | -5.6
Clc1ccc(-c2ccccc2)cn1 | -1.1 | -1.9 | / | 0.1 | 0.0 | -1.2 | / | /
CC(NC(=O)NC(=O)c1cccc(Cl)c1)c1ccccc1 (stereo not given) | 3.1 | 8.5 | -2.6 | 1.7 | -0.4 | -1.2 | -5.0 | -0.4
O=C(NCC(=O)N1CCN(C(=O)c2ccco2)CC1)c1ccccc1 | 0.2 | -0.5 | -4.2 | -1.3 | 1.4 | -0.8 | -1.1 | -2.4
Nn1c(SCC(=O)NCc2ccc3c(c2)OCO3)nnc1C(F)(F)F | -4.7 | -7.1 | / | 0.5 | 0.0 | -4.1 | / | /
N#Cc1ccc(OCC(=O)N/N=C/C2CC=CCC2)cc1 (stereo not given) | -1.7 | -0.3 | -9.9 | / | -0.3 | 0.9 | -6.7 | -39.9
COC(=O)CSc1cc([N+](=O)[O-])cc2c1c(C1OCCO1)nn2-c1ccccc1 | 6.6 | -1.4 | -18.3 | 0.5 | -0.3 | -7.5 | 1.3 | 5.2
COc1ccccc1Nc1nc(NCC2CCCO2)c2ccccc2n1 (stereo not given) | / | 2.0 | 64.3* | -35.1 | -0.3 | -10.9 | 1.1 | -3.6
Cc1ccc(C(=O)N[C@H](C(=O)OCC(=O)c2ccc[nH]2)C(C)C)cc1 | -3.4 | -0.6 | -13.7 | -0.5 | 0.5 | 5.7 | 11.1 | -7.1
Nc1nsc2ccccc12 | -11.5 | -0.2 | ? | 2.5 | -0.1 | 7.6 | -0.6 | 87.1*
C=CCn1c(=S)[nH]c2cc(C(=O)Nc3ccc(F)cc3)ccc2c1=O | 8.1 | 5.7 | 3.3 | 1.7 | -2.3 | 20.9 | -1.0 | -4.1

2 of these compounds in a different format.
N#Cc1ccc(OCC(=O)N/N=C/C2CC=CCC2)cc1 (stereo not given)
- Beta apoptosis = -1.7
- LANA-H2B inh = -0.3
- T cruzi inh = -9.9
- UCH37 inh = /
- Bfl-1 A1 inh = -0.3
- B2AR ag = 0.9
- RanGTP-Imp inh = -6.7
- Calb FLC = -39.9
Nc1nsc2ccccc12
- Beta apoptosis = -11.5
- LANA-H2B inh = -0.2
- T cruzi inh = ?
- UCH37 inh = 2.5
- Bfl-1 A1 inh = -0.1
- B2AR ag = 7.6
- RanGTP-Imp inh = -0.6
- Calb FLC = 87.1*

Next compounds.
SMILES | Beta apoptosis | LANA-H2B inh | T cruzi inh | UCH37 inh | Bfl-1 A1 inh | B2AR ag | RanGTP-Imp inh | Calb FLC
COc1ccc(N2CCN(c3oc(COc4ccccc4)nc3C#N)CC2)cc1 | 4.1 | -17.8 | / | 3.2 | 0.0 | 3.4 | / | /
CCc1cccc2c(SCC(=O)NCC3CCCO3)nc(-c3ccc(F)cc3)nc12 (stereo not given) | / | 2.2 | -14.7 | 1.5 | 0.8 | 6.6 | 4.8 | 1.4
CC1CN(C(=O)CCC(=O)NCc2ccc(F)cc2)c2ccccc2S1 (stereo not given) | -0.7 | -6.4 | 0.8 | -0.7 | -0.6 | -8.1 | -0.6 | 0.9
COc1ccc(OC)c(CN2CCCC(CO)C2)c1 (stereo not given) | -5.2 | -0.7 | -7.5 | 3.2 | 1.2 | -1.3 | -3.2 | -1.6
CN(C(=O)c1cnccn1)c1nnc(-c2cnccn2)s1 | -0.5 | -12.9 | -5.9 | 1.0 | -0.4 | -12.0 | -4.4 | 1.1
CC1CCC(NC(=O)CN2C(=O)COc3ccc(S(=O)(=O)N4CCCC4)cc32)CC1 (stereo not given) | 0.0 | -1.4 | 2.4 | 3.0 | 0.0 | / | -1.0 | -16.8
O=C1NC[C@@H](Cc2cccc3ccccc23)N(CCc2cc(C(F)(F)F)cc(C(F)(F)F)c2)C1=O | -10.8 | 4.0 | -16.2 | 1.6 | -0.5 | 1.4 | -2.1 | 0.4
COc1ccc(Nc2nc(NN)nc(C)c2[N+](=O)[O-])cc1 | 3.8 | 1.6 | -5.7 | 5.3 | 0.1 | 1.1 | 0.9 | 43.7
O=c1c2c3c(sc2n2c(=S)[nH]nc2n1-c1ccccc1)CCC3 | 1.4 | 0.0 | -1.9 | 3.6 | -1.8 | -59.0 | 1.5 | 3.6
CSc1nc(C)cc(-n2cc(F)c(=O)[nH]c2=O)n1 | 3.8 | 1.1 | -23.5 | -2.2 | -2.0 | 1.2 | -1.7 | -16.4
COc1ccc(NC(=O)Nc2cccc3c2O[C@@H](CN(C)CC2CCCCC2)[C@@H](C)CN([C@H](C)CO)C3=O)cc1 | 11.3 | -1.1 | / | -0.6 | -0.9 | 0.6 | / | /
COc1cccc(/C=N/NC(=O)c2cnccn2)c1OC | -3.1 | -0.1 | -1.3 | / | 1.2 | -2.4 | 0.3 | 0.1
COc1ccc(OC)c(Nc2ncnc3sc(-c4ccccc4)cc23)c1 | -0.9 | -0.7 | 43.1 | -89.1 | -0.5 | -0.3 | -2.1 | 2.4
COc1ccc(NC(=O)CCSc2ccc(C)cc2)cc1S(=O)(=O)Nc1ccccc1Cl | -7.1 | 0.9 | 0.7 | 2.4 | 0.3 | 10.2 | -2.9 | -6.7
CCN(CC)C(=O)c1sc2nc(Cc3ccccc3)[nH]c(=O)c2c1C | / | -0.8 | 17.1 | -45.8 | 0.1 | -7.0 | -2.1 | -12.0
CCCCCN(C(=O)CCC(=O)OCC(=O)NCc1ccc(OC)cc1)c1c(N)n(CCCC)c(=O)[nH]c1=O | -1.4 | 1.2 | -8.6 | 2.8 | -0.1 | -6.2 | 4.7 | 5.5
COc1cccc(NC(=S)N(CCC(C)C)C(C)c2ccncc2)c1 (stereo not given) | -1.6 | 1.6 | -9.5 | 1.7 | -2.4 | -4.2 | 3.5 | -1.8

Of the compounds above, eleven have an aryl methoxy group.
SMILES | Beta apoptosis | LANA-H2B inh | T cruzi inh | UCH37 inh | Bfl-1 A1 inh | B2AR ag | RanGTP-Imp inh | Calb FLC
COc1ccc(C(=O)NNC(=O)C(=O)/C=C(\O)c2ccc(C)cc2)cc1 | / | 2.1 | -13.4 | 15.6 | 0.9 | 7.7 | 1.3 | -4.4
COc1ccccc1Nc1nc(NCC2CCCO2)c2ccccc2n1 (stereo not given) | / | 2.0 | 64.3* | -35.1 | -0.3 | -10.9 | 1.1 | -3.6
COc1ccc(N2CCN(c3oc(COc4ccccc4)nc3C#N)CC2)cc1 | 4.1 | -17.8 | / | 3.2 | 0.0 | 3.4 | / | /
COc1ccc(OC)c(CN2CCCC(CO)C2)c1 (stereo not given) | -5.2 | -0.7 | -7.5 | 3.2 | 1.2 | -1.3 | -3.2 | -1.6
COc1ccc(Nc2nc(NN)nc(C)c2[N+](=O)[O-])cc1 | 3.8 | 1.6 | -5.7 | 5.3 | 0.1 | 1.1 | 0.9 | 43.7
COc1ccc(NC(=O)Nc2cccc3c2O[C@@H](CN(C)CC2CCCCC2)[C@@H](C)CN([C@H](C)CO)C3=O)cc1 | 11.3 | -1.1 | / | -0.6 | -0.9 | 0.6 | / | /
COc1cccc(/C=N/NC(=O)c2cnccn2)c1OC | -3.1 | -0.1 | -1.3 | / | 1.2 | -2.4 | 0.3 | 0.1
COc1ccc(OC)c(Nc2ncnc3sc(-c4ccccc4)cc23)c1 | -0.9 | -0.7 | 43.1 | -89.1 | -0.5 | -0.3 | -2.1 | 2.4
COc1ccc(NC(=O)CCSc2ccc(C)cc2)cc1S(=O)(=O)Nc1ccccc1Cl | -7.1 | 0.9 | 0.7 | 2.4 | 0.3 | 10.2 | -2.9 | -6.7
CCCCCN(C(=O)CCC(=O)OCC(=O)NCc1ccc(OC)cc1)c1c(N)n(CCCC)c(=O)[nH]c1=O | -1.4 | 1.2 | -8.6 | 2.8 | -0.1 | -6.2 | 4.7 | 5.5
COc1cccc(NC(=S)N(CCC(C)C)C(C)c2ccncc2)c1 (stereo not given) | -1.6 | 1.6 | -9.5 | 1.7 | -2.4 | -4.2 | 3.5 | -1.8

Source: PubChem BioAssay (several laboratories)
